KCNQ2 pot: enhances the rat KCNQ2 potassium channel | O88943 | CHO-K1 KCNQ2, FluxOR thallium flux fluorescence; hits give high values | B-score at 10 µM | 310,000 tested, 0.54% active;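 active means fluorescence ratio B-score at least 3 SD of library B-scores, with initial fluorescence B-score within 3 SD, cut at about 5.3 in these data; same plate scores as AID 2156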;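 further: B-score of peak minus minimum over baseline fluorescence ratio after K+ and Tl+ stimulus; positive B-score means potentiation of KCNQ2 with more thallium influx and brighter signal; only the inactives scoring about 0 or higher are listed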
Target sequence (O88943 whole entry, looked up): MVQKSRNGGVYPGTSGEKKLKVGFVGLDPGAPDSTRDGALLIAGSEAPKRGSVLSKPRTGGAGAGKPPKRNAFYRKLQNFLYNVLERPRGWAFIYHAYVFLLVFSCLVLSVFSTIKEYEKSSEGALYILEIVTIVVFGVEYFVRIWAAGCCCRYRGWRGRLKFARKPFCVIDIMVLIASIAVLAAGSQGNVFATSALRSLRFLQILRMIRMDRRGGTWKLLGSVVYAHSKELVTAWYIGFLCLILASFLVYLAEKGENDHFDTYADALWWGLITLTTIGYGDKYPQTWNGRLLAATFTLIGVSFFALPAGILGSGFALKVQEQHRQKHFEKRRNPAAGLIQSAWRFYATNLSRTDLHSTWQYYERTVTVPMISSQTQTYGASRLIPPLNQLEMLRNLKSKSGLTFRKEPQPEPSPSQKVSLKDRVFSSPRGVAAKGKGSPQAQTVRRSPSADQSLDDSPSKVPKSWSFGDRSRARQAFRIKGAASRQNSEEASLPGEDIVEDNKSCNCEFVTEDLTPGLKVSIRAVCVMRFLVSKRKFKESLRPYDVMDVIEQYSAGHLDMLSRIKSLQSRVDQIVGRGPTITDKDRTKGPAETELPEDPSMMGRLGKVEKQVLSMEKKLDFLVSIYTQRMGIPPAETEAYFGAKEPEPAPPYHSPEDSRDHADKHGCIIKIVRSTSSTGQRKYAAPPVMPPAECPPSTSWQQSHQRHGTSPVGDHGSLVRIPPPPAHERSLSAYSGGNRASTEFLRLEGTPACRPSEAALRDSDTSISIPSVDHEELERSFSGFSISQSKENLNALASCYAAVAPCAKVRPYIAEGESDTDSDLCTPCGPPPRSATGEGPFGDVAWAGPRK
KCNQ2 pot baseline: further read-out of KCNQ2 pot, marked with its call; B-score; compound at 10 µM; measured here: initial fluorescence intensity artifact check;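 brightness before thallium and not channel activity; 0 = typical well and far values either way flag optical interference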
* marks the source's active call; other numbers are inactive results. A portion of the library. The share of hits here may be higher or lower than overall.

SMILES	KCNQ2 pot	KCNQ2 pot baseline
O=C(Nc1cccc(C(=O)O)c1)/C(=C/c1ccccc1)NC(=O)c1cccc(Br)c1	0.18	0.04
COc1ccc(NC(=S)N2C3CCC2CC(NC(=O)NC24CC5CC(CC(C5)C2)C4)C3)c(OC)c1 (configuration not stated)	0.97	-0.41
Cc1ccc(-n2c(-c3ccncc3)n[nH]c2=S)cc1C	0.02	-0.6
CN(C)S(=O)(=O)c1cccc(NC(=O)CN2C(=O)NC(CCc3ccccc3)C2=O)c1 (configuration not stated)	1.1	-2.1
Cc1ccc(S(=O)(=O)C(C#N)c2nc3ccccc3nc2OCCO)cc1 (configuration not stated)	0.71	1.5
Cc1onc(-c2ccccc2)c1NC(=O)N(CCC(=O)O)Cc1ccccc1	0.98	0
Cc1ccc(C)n1CCN1CCN(C(=O)c2ccc(Cl)cc2)CC1	0.91	-0.21
CCN(CC)CCN(C(=O)c1ccc(N2C(=O)CCC2=O)cc1)c1nc2cc3c(cc2s1)OCO3	0.47	-0.31
COc1ccc(NCCc2ccccn2)cc1	2	-0.27
O=C(Nc1ccc(C(=O)N2CCCCC2)cc1)Nc1cccc(Cl)c1	0.41	0.05
CCCCNC(=O)c1cc2c(=O)n3cccc(C)c3nc2n(Cc2ccccc2)c1=N	0.53	-2
COC(=O)c1cc2sccc2n1CC(=O)Nc1cc(OC)cc(OC)c1	2.6	-0.62
CCOC(=O)Cc1nnc(NC(=O)COc2ccc(F)cc2)s1	1.2	-0.96
CCn1c(-c2ccc([N+](=O)[O-])cc2)n[nH]c1=S	2.7	-0.4
O=C(COC(=O)c1cccnc1Cl)Nc1ccc2c(c1)OCO2	0.2	2.1
CC(C)Oc1cccc(C(=O)C2CCCN(S(=O)(=O)C(C)C)C2)c1 (configuration not stated)	0.18	-0.06
COc1cc(CCC(=O)OCC(=O)Nc2ccc(Br)cc2F)cc(OC)c1OC	1.4	-0.01
COc1ccc(C/C(C)=N/NC(=S)Nc2ccc(C(C)C)cc2)cc1	0.47	-1.5
COc1ccc(CC(=O)NC(C)CCc2ccccc2)cc1OC (configuration not stated)	0.79	0.16
O=C(NCC1CCCO1)C(=O)NCC(c1ccco1)N1CCN(c2ccc(F)cc2)CC1 (configuration not stated)	0.19	-0.99

Three structures from above, sorted by heavy-atom count, lowest first.
SMILES	KCNQ2 pot	KCNQ2 pot baseline
COc1cc(CCC(=O)OCC(=O)Nc2ccc(Br)cc2F)cc(OC)c1OC	1.4	-0.01
O=C(Nc1cccc(C(=O)O)c1)/C(=C/c1ccccc1)NC(=O)c1cccc(Br)c1	0.18	0.04
COc1ccc(NC(=S)N2C3CCC2CC(NC(=O)NC24CC5CC(CC(C5)C2)C4)C3)c(OC)c1 (configuration not stated)	0.97	-0.41

Additional compounds follow.
SMILES	KCNQ2 pot	KCNQ2 pot baseline
Cc1cccc2c1-c1sc(C(=O)Nc3cccc([N+](=O)[O-])c3C)cc1CO2	0.81	1.3
Cc1cccc(NC(=O)Cn2ccn(-c3ccc4c(c3)OCCO4)c(=O)c2=O)c1	1.8	1.6
O=C(O)c1ccc(Nc2nc(-c3cc4ccccc4oc3=O)cs2)cc1O	0.15	-3.8
CCNC(=O)c1ccc(-n2nc(C(F)(F)F)c3c2CCCC3)cc1	0.02	-0.48
CCN(CC)c1ccc(C(=O)N/N=C(\C)c2ccc(OC)c(OC)c2)cc1	2.8	-0.13
NC(=O)NC(=O)COC(=O)[C@H](Cc1ccccc1)NC(=O)c1cccs1	1.9	-0.04
O=C(NCCC(=O)N1CCN(c2ncccn2)CC1)c1ccccc1	0.86	-0.49
COc1cccc(C(=O)NCC(=O)N/N=C/c2ccc(OC(=O)c3cccs3)c(OC)c2)c1	1.2	0.85
COc1cc(C(=O)NC(=S)Nc2ccc3[nH]c(=O)[nH]c3c2)cc(OC)c1OC	1.7	-2.1
COc1ccc(C2CC(c3ccccc3)=NN2c2ccc(N)cc2)cc1 (configuration not stated)	0.49	1.1
c1coc(-c2nn3c(-c4ccco4)nnc3s2)c1	0.57	0.6
O=C(NCc1ccc2c(c1)OCO2)C(=O)NCC1OCCCN1S(=O)(=O)c1ccc(F)cc1 (configuration not stated)	0.05	-2.1
CCOC(=O)c1[nH]c2ccc(F)cc2c1NC(=O)c1cc(OC)c(OC)c(OC)c1	1.4	-0.14
Cc1ccc(NC(=O)CCNS(=O)(=O)c2ccc3[nH]c(=O)oc3c2)cc1C	2	-0.67
O=C(NNC(=O)c1cc2ccccc2oc1=O)c1ccccc1[N+](=O)[O-]	0.04	0.14
CC(C)CN(CC(C)C)S(=O)(=O)N1CCC(C(=O)N2CCc3ccccc3C2)CC1	0.75	-0.19
Cc1ccc(OCC(O)CNC2CCCC2)cc1C (configuration not stated)	0.28	-0.34
C=C1CCN([C@@H](Cc2ccccc2)C(=O)NC2CCN(Cc3ccccc3)CC2)S(=O)(=O)c2ccccc21	1	-0.64
O=C(CNC(=O)c1ccc(Br)cc1)N/N=C/c1cccnc1	0.52	-0.38
CC(=O)Nc1ccc(S(=O)(=O)N2CCC(N3CCCC3)CC2)cc1	1	-0.76
CC(C)CCN(C)c1ccc(/C=N/n2cnnc2)cc1	0.03	0.45
CCC(C)N(C(=O)COC(=O)CNC(=O)c1sc2ccccc2c1Cl)C1CCS(=O)(=O)C1 (configuration not stated)	0.62	-0.04
Oc1ccc(C[C@@H]2CNCCN2CCc2cc(C(F)(F)F)cc(C(F)(F)F)c2)cc1	1.3	-0.5
CN1C(=O)/C(=C\C(=O)c2cccs2)c2ccccc21	0.41	-0.01
O=C(COc1coc(CN2CCN(c3ccccc3)CC2)cc1=O)Nc1ccccc1F	0.23	0.01
Nc1ccc(C(=O)Nc2nccs2)cc1	0.37	-0.58
CS(=O)c1ccccc1-c1nc(-c2cccc(Cl)c2)no1 (configuration not stated)	0.2	-2.4
CC(C)OCCCNC(=O)CCCC(=O)Nc1ccc(OCCc2ccccc2)cc1	1.3	-0.98
CCN(c1ccccc1)S(=O)(=O)c1ccc(Cl)c(NC(=O)COC(=O)c2ccc[nH]c2=O)c1	0.01	-0.92
Cc1nnc(SCC(=O)Nc2ccc(Cl)cn2)n1Cc1ccccc1	0.43	1.1
Cc1cccc(N(CC(=O)N2CCCC2)S(=O)(=O)c2ccccc2)c1C	0.67	0.01
Cc1ccccc1NS(=O)(=O)c1ccc(OCCNS(C)(=O)=O)cc1	0.1	0.16
Cc1ccc(-n2c(CNc3ccc(F)cc3)nnc2SCC(N)=O)cc1	0.48	-1.4
CCCC(=O)NC(Nc1ccc(S(=O)(=O)Nc2cc(C)on2)cc1)(C(F)(F)F)C(F)(F)F	0.55	-0.95
C=CCc1cc(/C=N/NC(=O)CSc2nnc(CCCc3ccc(OC)cc3)o2)cc(OC)c1O	0.74	-1
COC(=O)c1ccc(Nc2ncnc3c2cnn3-c2cccc(C)c2)cc1	0.29	-1.1
O=C(OCC(=O)N1CCCCCC1)c1n[nH]c(=O)c2ccccc12	1.9	-0.93
O=C(CSc1nnnn1C1CCCC1)NCc1ccc2c(c1)OCO2	1.2	-0.41
COC(=O)CC1C(=O)NCCN1C(=S)Nc1ccc(F)cc1 (configuration not stated)	1.4	-0.21
O=C(Nc1ccccc1)Nc1ccccc1Br	0.18	0
Cc1cc(NC(=O)Cn2cc([N+](=O)[O-])cn2)no1	0.08	-1.5
Cc1cc([N+](=O)[O-])cc2ncccc12	0.15	-0.35
CCOc1ccc(-n2c(SCC(=O)Nc3cc(C)on3)nnc2-c2c[nH]c3ccccc23)cc1	0.97	0.1
Nc1ccc2oc(=O)c3ccccc3c2c1	0.43	-0.16
CN1CCN(C=Nc2nc3ccccc3nc2N2CCCC2)CC1	0.12	0.03
Cc1ccc(C(=O)OCC(=O)c2c[nH]c3ccccc23)cc1NC(=O)c1ccco1	0.21	-0.22
CCC(C)(C(=O)NC1CCCCC1)N(CC1CCCO1)C(=O)c1ccccn1 (configuration not stated)	1.5	-0.79
O=c1[nH]c(/C=C/c2cccc3ccccc23)nc2ccccc12	1.5	0.42
CCNc1ccc(S(=O)(=O)N(C)C)cc1NCC(=O)Nc1ccccc1Br	0.95	-0.34
Cc1cc(COC(=O)C2N3C(=O)[C@@H](NC(=O)COc4ccccc4)[C@H]3SC2(C)C)on1 (some centres not stated)	0.29	-0.23
CCOC(=O)c1sc2nc(NC(=O)C(C)(C)C)sc2c1C	1.6	-0.83
Cc1ccc(C(O)c2ccncc2)cc1 (configuration not stated)	1.7	-0.67
O=C(CCc1nnc(C2CCCCC2)o1)NCc1cccc(-n2cccn2)c1	0.87	0.86
CCOc1ccc(Oc2nc(NCC(C)C)nc(OC)n2)nn1	0.2	-0.1
COCCNC(=S)N(CCc1c(C)[nH]c2ccc(OC)cc12)Cc1cccnc1	0.68	1.2
CC(=O)Nc1c(C#N)c(C(C)(C)C)cn1C	1.6	-1.3
COc1ccc(C(=O)CCNc2cccc(Cl)c2)cc1	1.4	0.64
CCc1ccccc1NC(=O)Cn1nc(C(F)(F)F)c2c1CCC2	0.68	-0.63
O=C(COC(=O)c1cc2c(s1)CCCC2)NCc1ccccc1Cl	0.04	1.1
Cc1ccc2cc(CN(Cc3ccc4c(c3)OCO4)Cc3nnnn3Cc3ccco3)c(=O)[nH]c2c1	0.13	-0.38
Next part:
SMILES	KCNQ2 pot	KCNQ2 pot baseline
CCc1ccc(NC(=O)NCc2cccnc2)cc1	0.05	-0.17
O=C(Nc1ccnn1C1CCN(Cc2ccccc2)CC1)c1ccccc1Cl	2.2	-0.63
O=c1c2ccccc2oc2cc(C#CC3(O)CCCCC3)ccc12	0.16	-3
Cc1cc(NC(=O)CCCn2cnc([N+](=O)[O-])n2)no1	0.49	0.42
COc1cc(C)c(Cl)cc1S(=O)(=O)n1cnc(C)c1	0.88	-0.61
COc1ccccc1CN1CCNC(=O)C1CC(=O)NCc1csc(C)n1 (configuration not stated)	0.17	2.3
CCOC(=O)CNC(=O)CSc1nnnn1-c1ccc(C)c(C)c1	0.41	0.42
COCc1cc(C)nc(SCC(=O)N2CCC(C)CC2)c1C#N	2	-0.54
O=C(CSc1nnc(-c2cccnc2)o1)Oc1ccccc1	0.51	0.16
COc1ccc(-c2csc(NC(=O)CS(=O)(=O)c3ccc(F)cc3)n2)cc1OC	0.33	-0.21
O=C(NCCS(=O)(=O)N1CCC2(CC1)OCCO2)c1ccccc1	0.49	0.86
COc1ccc(Cl)cc1NC(=O)C/C(C)=N/NC(=O)CC#N	0.86	1.1
O=S1(=O)N=C2CCCCCN2C(c2ccc(Cl)cc2)N1 (configuration not stated)	0.15	-0.63
CCOC(=O)CSc1nnc(CNC(=O)c2ccc(S(=O)(=O)N(C)C)cc2)n1C	0.09	-0.03
CCc1cccc(CC)c1NC(=O)c1ccc(-n2cncn2)nc1	0.18	-0.72
CCCNC(=O)NC1C(NC(=O)NCCC)N(C)C(=O)N1C (configuration not stated)	1.4	0.25
COC(=O)C1CCN(C(=O)Cc2ccccc2OC)CC1	0.08	-0.01
CCCCN(C)Cc1c(C)[nH]c2ccc(C)cc2c1=O	1.2	-1.9
CN(C)S(=O)(=O)Oc1ccccc1C(=O)Nc1cccc(C(F)(F)F)c1	1.3	-0.02
COc1ccc(-c2oc(NC(=O)CCl)c(C#N)c2-c2ccc(OC)cc2)cc1	0.8	-2

In the list so far, these have a tert-butyl group:
SMILES	KCNQ2 pot	KCNQ2 pot baseline
CCOC(=O)c1sc2nc(NC(=O)C(C)(C)C)sc2c1C	1.6	-0.83
CC(=O)Nc1c(C#N)c(C(C)(C)C)cn1C	1.6	-1.3

(further entries)
SMILES	KCNQ2 pot	KCNQ2 pot baseline
COc1ccccc1-c1n[nH]c(=S)n1Cc1ccccc1	0.03	-0.84
Cc1cc(C)c2c(N)c(-c3nnc(SCc4ccc(Cl)cc4)n3C)sc2n1	0.57	2.3
CCCOc1ccc(CCc2n[nH]c(=S)n2-c2ccccc2)cc1	0.52	2.9
CC(C(=O)Nc1ccccn1)N1C(=O)C2C3C=CC(C3)C2C1=O (configuration not stated)	0.16	0.67
N#C/C(=C\c1ccc(OCc2ccccc2)cc1)C(=O)Nc1nc2c(s1)CCN(Cc1ccccc1)C2	2.5	0.02
O=C(NCc1ccccc1)NC(=O)c1ccc(Cl)cc1	0.17	-0.92
COCCCN(C(=O)Cc1ccc(Cl)c(Cl)c1)c1c(N)n(Cc2ccccc2)c(=O)[nH]c1=O	0.35	1.1
CC1CCN(C(=O)C2CCN(c3ncnc4c3nc3n4CCCCC3)CC2)CC1	0.57	-0.6
CCN(CC)S(=O)(=O)c1ccc2c(c1)nc(CCC(=O)OCC(=O)N1CCc3ccccc31)n2C	0.4	-2.6
Cc1ccsc1-c1nc(-c2ccccc2)c(-c2ccccc2)[nH]1	0.14	-0.39
CCCCCn1c(CNC(=O)COC)nc2ccccc21	0.59	-1
Cc1nc(-c2ccc(Cl)cc2)sc1C(=O)NNC(=O)C(C)C	0.79	-0.06
Cc1ccc(S(=O)(=O)Nc2cccc(-n3cnnn3)c2)cc1C(=O)O	1.4	0.69
O=C1NC2(CCCCCC2)C(=O)N1Cc1cccc(Cl)c1	0.94	-0.17
CC#CCCc1nc2ccccc2c(=O)n1N	1.2	-0.14
O=C(CSc1nnc(COc2cccc3ccccc23)o1)N1CCN(C(=O)c2ccco2)CC1	1.6	0.12
Clc1ccc(-c2nnc3cccc(Cl)n23)c(Cl)c1	1.4	-1.3
O=C1CCC(c2ccccc2)N1C(=O)c1cccnc1 (configuration not stated)	0.05	-0.08
c1ccc(C2C3=C(CCCC3)Nc3ncnn32)cc1 (configuration not stated)	0.26	-0.86

Full records, looked up by structure. Screens in order: KCNQ2 pot | KCNQ2 pot baseline
`Clc1ccc(-c2nnc3cccc(Cl)n23)c(Cl)c1` is entered as 1.4 | -1.3
`N#C/C(=C\c1ccc(OCc2ccccc2)cc1)C(=O)Nc1nc2c(s1)CCN(Cc1ccccc1)C2` is entered as 2.5 | 0.02
`CC1CCN(C(=O)C2CCN(c3ncnc4c3nc3n4CCCCC3)CC2)CC1` is entered as 0.57 | -0.6
`CC(C(=O)Nc1ccccn1)N1C(=O)C2C3C=CC(C3)C2C1=O` (configuration not stated) is entered as 0.16 | 0.67
`Cc1cc(C)c2c(N)c(-c3nnc(SCc4ccc(Cl)cc4)n3C)sc2n1` is entered as 0.57 | 2.3
